Screening results (PubChem)
RecA splice inh = Mtb RecA intein splicing inhibition; cell-free RecA intein splicing, fluorescence; inhibition, %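 (about 9 µM by stock and volumes)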; hit rate 0.75% among 290,000; AID 2221; in the data active = inhibition above about 30%; inconclusive = no clear call, values can overlap the other calls;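 note: 0% = vehicle wells and 100% = reference inhibitor control wells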
Target sequence (P9WHJ3 whole entry, looked up, canonical isoform): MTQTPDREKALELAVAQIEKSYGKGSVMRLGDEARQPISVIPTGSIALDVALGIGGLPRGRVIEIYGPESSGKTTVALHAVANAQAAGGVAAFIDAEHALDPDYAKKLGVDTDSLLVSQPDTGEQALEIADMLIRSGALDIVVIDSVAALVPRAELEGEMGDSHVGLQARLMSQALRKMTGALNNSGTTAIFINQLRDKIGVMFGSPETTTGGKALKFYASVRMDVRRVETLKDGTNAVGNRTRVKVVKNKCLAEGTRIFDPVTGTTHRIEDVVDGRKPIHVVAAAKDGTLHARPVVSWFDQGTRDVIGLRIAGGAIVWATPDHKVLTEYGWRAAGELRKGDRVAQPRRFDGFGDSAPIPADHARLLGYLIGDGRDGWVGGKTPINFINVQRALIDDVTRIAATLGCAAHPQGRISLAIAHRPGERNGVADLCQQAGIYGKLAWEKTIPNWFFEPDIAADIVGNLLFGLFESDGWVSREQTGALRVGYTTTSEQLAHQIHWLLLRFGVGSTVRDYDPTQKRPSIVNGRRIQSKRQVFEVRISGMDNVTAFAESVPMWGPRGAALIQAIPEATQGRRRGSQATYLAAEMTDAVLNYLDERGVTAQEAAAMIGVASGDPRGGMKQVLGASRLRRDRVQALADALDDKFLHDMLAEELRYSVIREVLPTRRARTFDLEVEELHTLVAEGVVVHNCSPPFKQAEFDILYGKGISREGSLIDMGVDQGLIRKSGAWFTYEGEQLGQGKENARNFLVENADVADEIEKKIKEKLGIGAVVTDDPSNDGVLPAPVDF
YopH inh = YopH (Yersinia) phosphatase inhibition; fluorescence Ex485/Em525; inhibition, %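 (about 10 µM by stock and volumes)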; hit rate 0.16% among 140,000; AID 898;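 active = inhibition of 50% or more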;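 note: controls were vehicle for no effect and minimum signal wells for full effect; inactives centre near -20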
Mtb growth = M. tuberculosis H37Rv growth inhibitors, H37Rv strain (AID 1626); M. tuberculosis H37Rv growth inhibition; higher % means a stronger effect; inhibition, % at 10 µM; hits with a dose series show IC50 in µM; hit rate 0.95% among 220,000;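 active = confirmed in a dose series; inconclusive = inhibition above 80% but not taken into the dose series; inactive = below 80% or under 30% at every dose of the series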;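 note: bacteria incubated seven days before Alamar blue readout; 0% = bacteria only wells and 100% = bacteria with antibiotic wells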
Mtb bLac sens = beta-lactam sensitization of Mtb H37Rv; M. tuberculosis H37Rv growth with meropenem, percent inhibition; hits of this screen are not shown here; inhibition, % at 25 µM; hit rate 0.27% among 330,000; AID 434955;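 active = about 74% or more and at least 40 points above the plate without the antibiotic, then above 30% in a dose series; inconclusive = first-round hits that could not be retested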;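 note: growth measured after seven days incubation then overnight dye step; 0% = bacteria only wells and 100% = bacteria with antibiotic; twin plates without the antibiotic show which effects depend on it; some results filed as inactive read as strong as hits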
Arbovirus inh = arbovirus infection inhibition | inhibition, % at 10 µM | AID 1251 | arbovirus infection cell-based antiviral screen | hit rate 0.37% among 200,000;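 active = inhibition from about 30%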;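 note: bluetongue infection of BSR cells; cell survival read as ATP light after 72 h; 0% = infected wells without compound and 100% = uninfected wells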
Arbovirus inh repeat = recorded beside Arbovirus inh, whose call it bears; inhibition, %; measured here: 10K subset replicate screen; many hits read low in the repeat;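 first of two repeat runs on a subset; 0% = infected and 100% = uninfected wells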
* = called active by the depositor; ? = inconclusive; · = not tested or not shown.

Sample of the layout (three entries):
SMILES	RecA splice inh	YopH inh	Mtb growth	Mtb bLac sens	Arbovirus inh	others
COc1cc(/C=C2\C(=N)N3N=C(C)SC3=NC2=O)cc(Cl)c1OCCOc1ccc(NC(C)=O)cc1	-0.7	·	·	3	·
CCN(CC(=O)NCc1ccc(F)cc1)C(=O)c1ccc(COc2ccccc2)cc1	3.9	·	·	0	·
Cc1ccc(C(=O)NNc2nc3ccccc3nc2C(F)(F)F)cc1	-1.1	-23	0%	3	8

The list itself, repeating the preview:
SMILES	RecA splice inh	YopH inh	Mtb growth	Mtb bLac sens	Arbovirus inh	others
COc1cc(/C=C2\C(=N)N3N=C(C)SC3=NC2=O)cc(Cl)c1OCCOc1ccc(NC(C)=O)cc1	-0.7	·	·	3	·
CCN(CC(=O)NCc1ccc(F)cc1)C(=O)c1ccc(COc2ccccc2)cc1	3.9	·	·	0	·
Cc1ccc(C(=O)NNc2nc3ccccc3nc2C(F)(F)F)cc1	-1.1	-23	0%	3	8
O=C(Cn1ccc2ccccc2c1=O)NCCC(=O)N1CCN(c2cccc(Cl)c2)CC1	3.3	-16	-4%	-2	-7
Cc1cc(C)c2nc(NCc3ccccc3O)sc2c1	-7.3	·	·	6	·
COc1ccc(Cn2ccnc2SCC(=O)Nc2ccccc2F)cc1	3.1	·	·	-1	·
COc1ccc(CCNC(=O)C(=O)NCC2OCCN2C(=O)c2ccc(Cl)cc2)cc1OC (centres undefined)	3.1	·	·	-1	·
Cn1cc(Br)c(C(=O)NNC(=O)c2ccc(Br)cc2)n1	·	-41	7%	-6	-8
Cc1ccc2cc(C#N)c(N3CCCN(S(=O)(=O)c4ccccc4)CC3)nc2c1C	-2.4	-23	-1%	28	·
Cc1nc2nc(SCC(=O)c3ccc([N+](=O)[O-])cc3)[nH]c2cc1Br	-8.0	-13	7%	4	-1
COc1ccc(/C=C/C(=O)C2CC2)cc1COc1c(C)cccc1C	9.5	·	-4%	15	10
Cn1nccc1C(=O)N1CCN(c2ccc(F)cc2)CC1	-4.5	-20	1%	-9	3
COc1ccc(OCc2cc(C(=O)N3C[C@H]4CC[C@H]3C4)no2)c(Cl)c1	-0.3	·	·	-4	·
Cc1ccc(C(C)NC(=O)c2cccs2)cc1C (centres undefined)	1.2	·	·	1	·
Cc1ccc(S(=O)(=O)Nc2cccc(-c3ccc(N4CCCCCC4)nn3)c2)cc1C	7.6	·	·	5	·
Cc1ccc(S(=O)(=O)N2CC(O)C[C@H]2C(=O)OCC(=O)c2ccccc2)cc1 (some centres undefined)	0.8	25	1%	9	0
Cc1cccc(NS(=O)(=O)c2cccc(C(=O)NCC3(N4CCCCC4)CCCCC3)c2)c1	1.8	·	·	-2	·
O=C(NCc1ccco1)c1cccn2c(=O)c3c4c(sc3nc12)CCCC4	-5.4	-20	·	5	-4
CCOc1ccccc1N(CC(=O)NC1CCCCC1)C(=O)CCC(=O)Nc1cc(C)ccn1	0.9	·	·	-2	·
COC(=O)c1c(NC(=O)c2ccccc2C(=O)O)sc2c1CCC2	-1.1	·	·	2	·
Cc1cccc(NC(=O)/C(C#N)=C/c2ccc[nH]2)c1C	-2.7	·	·	-6	·
CC(=O)NCCC(=O)Nc1cc(S(=O)(=O)N2CCOCC2)ccc1N1CCCC1	1.7	·	·	-17	·
COc1cccc(CNC(=O)c2cccc(S(=O)(=O)N3CCN(C)CC3)c2)c1	-0.8	·	·	-10	·
Cc1ccc(S(=O)(=O)Nc2ccc(C(N)=O)cc2)cc1[N+](=O)[O-]	-3.3	·	-8%	1	9
O=C(CN1CCCC1)N1CCCc2ccccc21	-1.7	·	-9%	2	1
N#CC1=C(N)Oc2cc3ccccc3cc2C1c1cccs1 (centres undefined)	0.6	-33	-15%	-5	-13
CC(=NC(C)C)C1=C(O)CCC1=O	-3.3	-24	1%	-12	9
O=C(O)CCSC(=S)N1CCOCC1	-0.5	·	-11%	-2	·
O=C(NCCc1c[nH]c2ccccc12)C1CCC(Cn2c(=S)[nH]c3ccccc3c2=O)CC1 (centres undefined)	-0.4	-68	51%	96	4
COc1ccc(/C=C/C(=O)Nc2ccccc2C(=O)O)cc1	-1.3	·	4%	0	51*
CCOc1cc(CNCCCN2CCOCC2)cc(Cl)c1OCC(=O)NC(C)(C)C	-2.2	·	·	-5	·
Cc1ccnc(N2CCC(C(=O)Nc3ccc(Oc4ccccc4)cc3)CC2)n1	1.2	-32	·	-6	-2
Cc1ccc(N(CC(=O)N/N=C/c2ccc(OC3CSC3)cc2)S(=O)(=O)c2ccccc2)cc1	5.4	-53	46%	99	4
CCOc1ccc(-c2c(C#N)c(N)nc3sc(C(=O)c4ccccc4)c(N)c23)cc1	-37	·	3%	1	·
CCn1c(=N)n(CC(O)c2ccco2)c2ccccc21 (centres undefined)	-3.1	-34	-2%	-3	5
O=C(O)c1cc(Cl)c(Cl)cc1C(=O)N1CCCC1	-2.8	-25	3%	-1	10
CCCCNc1ccc(S(=O)(=O)c2cccc([N+](=O)[O-])c2)cc1[N+](=O)[O-]	1.1	-20	9%	-6	-6
CCOC(=O)c1ccccc1NC(=O)COC(=O)C(CCSC)NC(=O)COc1ccccc1 (centres undefined)	3.1	·	·	-4	·
O=C(Oc1ccc(-c2cnc3ccccc3n2)cc1)c1ccc(Br)o1	0.0	-18	63%	77	-12
CCOC(=O)C1CCCN(c2c(C(=O)c3ccccc3)cnc3ccc(OC)cc23)C1 (centres undefined)	2.7	·	4%	8	3
CCOC(=O)c1oc2ccccc2c1NC(=O)COc1cccc(OC)c1	·	-36	0%	9	-10
N#C/C(=C\c1c(Oc2ccc(Cl)cc2)nc2ccccn2c1=O)C(=O)NC1CCS(=O)(=O)C1 (centres undefined)	-90	·	·	7	·
COc1cccc(-c2nc(CS(=O)CC(=O)NCc3ccccc3)c(C)o2)c1 (centres undefined)	-0.6	·	-2%	3	7	Arbovirus inh repeat=1
CCOC(=O)c1cnc(-n2nc(C)cc2C)nc1NCc1ccccc1	1.7	-39	?	87	-29
O=C(Nc1ccc(Cl)cn1)c1cc2ccccc2o1	2.3	-6	0%	37	0
O=c1c2ccccc2nc(-c2ccccc2Cl)n1-c1ccc(O)cc1	2.4	·	·	-11	·
CC(CC(=O)Nc1ccc(S(=O)(=O)Nc2ncccn2)cc1)c1ccccc1 (centres undefined)	1.5	·	·	-4	·
O=C(O)C1CCCN1S(=O)(=O)c1cc(Cl)ccc1Cl (centres undefined)	-0.3	-29	-3%	8	11	Arbovirus inh repeat=2
COc1cc(/C=N/NC(=O)c2ccc(CSc3nncn3C)cc2)cc(OC)c1O	-6.1	·	-1%	-1	6
CC(C)OC(=O)/C(=C\C=C\c1ccccc1)NC(=O)c1ccccc1	-0.3	-39	7%	-12	-2
Other records
SMILES	RecA splice inh	YopH inh	Mtb growth	Mtb bLac sens	Arbovirus inh	others
Cc1ccc(-c2c(C(=O)O)c3ccccc3[nH]c2=O)cc1	-0.8	·	·	0	·
c1ccc(NC2=Nc3ccccc3CC2)cc1	-2.3	-9	-13%	-1	-7
CN(C(=O)CCc1nc2ccccc2s1)c1ccccc1	2.4	-22	7%	3	-6
COc1ccc(N/C=C2\C(=O)CCc3c2oc2cc(Cl)c(O)c(Cl)c32)cc1	-2.6	·	-11%	-1	·
COc1cc(/C=C/CN2CCN(Cc3ccc(C)o3)C(CCO)C2)ccc1O (centres undefined)	-4.4	·	-2%	-1	-4
COc1ccc(NC(=O)NNC(=O)COc2ccc3cc(Br)ccc3c2)c(OC)c1	1.0	·	·	-2	·
Cc1ccc(NC(=O)CCNS(=O)(=O)c2ccccc2)c(C(=O)c2ccccc2)c1	3.5	-20	0%	-10	0
O=C(CSCc1c(F)cccc1Cl)NCCc1ccccc1	0.4	·	·	7	·
CCN(Cc1ccc(OC)c(F)c1)C(=O)CCl	49*	·	67%	98	1
CN1CCc2nc(NC(=O)c3cccc(OC(F)F)c3)sc2C1	0.7	-31	3%	-4	2

5 entries drawn at random from those above:
SMILES	RecA splice inh	YopH inh	Mtb growth	Mtb bLac sens	Arbovirus inh	others
CN(C(=O)CCc1nc2ccccc2s1)c1ccccc1	2.4	-22	7%	3	-6
Cc1ccc(-c2c(C(=O)O)c3ccccc3[nH]c2=O)cc1	-0.8	·	·	0	·
CN1CCc2nc(NC(=O)c3cccc(OC(F)F)c3)sc2C1	0.7	-31	3%	-4	2
c1ccc(NC2=Nc3ccccc3CC2)cc1	-2.3	-9	-13%	-1	-7
CCN(Cc1ccc(OC)c(F)c1)C(=O)CCl	49*	·	67%	98	1

Next section
SMILES	RecA splice inh	YopH inh	Mtb growth	Mtb bLac sens	Arbovirus inh	others
O=C(OCc1nnc(-c2ccc(Cl)cc2)o1)C12CC3CC(CC(O)(C3)C1)C2	-4.7	·	0%	5	1
CCOC(=O)c1c(S(=O)(=O)NCC(=O)Nc2ccc(C)cc2)c(C)n(C)c1C	-0.9	·	·	1	·
CN(C(=O)c1cccc(N2C(=O)C3CC=CCC3C2=O)c1)C1CCCCC1 (centres undefined)	-2.7	-52	1%	-3	-1
Cc1c(C(=O)O)nn(-c2cccc(C(F)(F)F)c2)c(=O)c1C#N	-0.4	·	·	1	·
O=C(OCc1nc2ccccc2s1)c1cnccn1	0.4	-35	-5%	-2	-5
NC(=O)c1ccccc1N/C=C1\CCCCC1=O	-0.5	·	1%	-4	0
CC1=C(CCN2CCN(C(C)C)C(CCO)C2)C(C)(C)CCC1 (centres undefined)	0.0	·	1%	2	-8
CCS(=O)CCSC(=N)N (centres undefined)	-0.1	3	1%	38	0
CC(C)Cc1nc2oc3c(NCC(C)O)ncnc3c2c2c1CCCC2 (centres undefined)	0.9	·	7%	8	·
Cc1ccc(Sc2ccc(C=C3C(=O)N(C)C(=O)N(C)C3=O)o2)cc1	1.7	·	7.6µM*	97	0
Cc1ccccc1C(=O)Nc1ccc(N2CCCC2)cc1	1.6	·	5%	4	-14
CSc1ccc(S(=O)(=O)NCC(=O)OCC(=O)NC2(C#N)CCCCC2)cc1[N+](=O)[O-]	1.7	·	·	-15	·
COc1ccccc1CNC1CCN(Cc2ccccc2)CC1	-1.2	·	·	-4	·
NC(=O)C1CCN(C(=O)c2cc3c(s2)CCCC3)CC1	2.9	·	·	2	·
Cc1cccc(OCC(=O)OCC(=O)c2c(N)n(C)c(=O)n(C)c2=O)c1	-1.4	-41	-14%	-8	3
O=C(Nc1cccc(C(F)(F)F)c1)C1CCCO1 (centres undefined)	1.9	·	-6%	-1	1
COc1ccc(OC)c(Nc2nc(-c3sc(C)nc3C)cs2)c1	11	-4	2%	96	-8
Nc1ccn(Cc2cccc(Cl)c2)n1	-1.4	·	-2%	-5	0
CCc1ccc2nc(NC(=O)C3CSC4(C)CCC(=O)N34)sc2c1 (centres undefined)	5.7	·	·	-4	·
CC(C)OC(=O)c1nn2c(C(F)(F)F)cc(-c3ccc(Br)o3)nc2c1Br	2.4	-23	1%	37	-4
CCc1ccccc1NC(=O)CN(C)Cc1nc(N)nc(Nc2ccccc2C)n1	0.8	-39	·	-5	0
CCOC(=O)CNC(=O)C1(/C=C/c2ccccc2)CC(=O)N1c1ccc(C)cc1 (centres undefined)	2.6	·	·	8	·
Fc1cccc(F)c1-c1nc(-c2ccc(Cl)cc2)no1	6.7	·	13%	3	·
CCc1ccc(Nc2n[n+](-c3ccccc3)c(-c3ccc(OC)c(Br)c3)s2)cc1	5.1	·	·	75	·
CCCn1c(CN2CCN(C(=O)OCC)CC2)nc2cc([N+](=O)[O-])ccc21	-1.5	·	·	1	·
Cc1cc(C)c(NC(=O)CSc2nnc(CN3CCOCC3)n2C)c(C)c1	-1.6	·	·	-6	·
COc1ccc(-n2c(N)c(C(=O)NCc3ccco3)c3nc4ccccc4nc32)cc1OC	-6.9	-34	-3%	-5	-21
O=C(CCc1nnc(CCCCc2ccccc2)o1)NCCCc1cccnc1	0.7	·	4%	-1	8
Cc1cc(NS(=O)(=O)c2ccc(NC(=S)Nc3ccc(Cl)cc3C)cc2)no1	3.4	·	4%	8	·
C/C(CCC(=O)O)=N/Nc1ccc([N+](=O)[O-])cc1[N+](=O)[O-]	8.6	-13	8%	0	6
CC(C)(C)NC(=O)CSc1ccc(C(C)(C)C)cc1	9.1	-28	0%	-17	-12
COc1ccc(/C=N/Nc2cc(C)nc3ccc(OC)cc23)c(OC)c1	-40	·	·	100	·
COc1ccc(/C=C/C(=O)OCC(=O)NCCC2=CCCCC2)cc1OC	1.6	·	2%	-1	-2
C=CCn1c(NC(=O)c2ccc(Br)o2)c(C(=O)OCC)sc1=S	·	-25	-4%	4	5
CC1CCN(C(=O)CSc2nc3ncccc3[nH]2)CC1	-1.0	·	·	-2	·
COc1ccc(-c2cc(C(=O)N3CCCCCC3)c3cc(C)ccc3n2)cc1	1.4	·	·	87	·
O=C(OCC(=O)N1CCCC1)c1cccs1	-1.4	-54	-11%	-9	5
CC(=O)n1cc(Nc2ccc([N+](=O)[O-])cc2)c2ccccc21	0.2	·	3%	4	1

A portion of the library; rates above refer to the full screens.
